# Screening results deposited in PubChem BioAssay by National Center for Advancing Translational Sciences (NCATS).
# VACV mCherry inh – inhibitors of vaccinia virus infection (mCherry reporter signal); Potency, µM (highest dose often 36.5 µM), for inactives: at the top dose activity change, negative = inhibition, actives largely listed as inhibitors; hit rate 0.63% among 310,000; AID 720579; Vaccinia virus mCherry reporter infection, fluorescence; about a quarter of the inactives have no number; active = well fitted inhibition curve with a large enough effect; inconclusive = small, poorly fitted or top-dose-only effect; inactive = no such curve, though single readings can be large or run the other way; tested in A549 cells; also: nearly all actives have a fitted effect of over 35% in size; inactives centre near -10
# Vaccinia Venus – vaccinia inhibition (Venus reporter). hit rate 0.46% among 330,000. Vaccinia virus Venus reporter expression, fluorescence. Potency, µM (highest dose often 36.5 µM), without a hit: at the highest dose activity change, negative = inhibition, hits mostly inhibitors; active means well fitted inhibition curve with a large enough effect; inconclusive means small, poorly fitted or top-dose-only effect; inactive means no such curve, though single readings can be large or run the other way; tested in A549 cells; also: nearly all actives have a fitted effect of over 30% in size; inactives centre near -10
# The depositor's hits bear a star; i = inactive; ? = inconclusive; . = not tested or not shown; [ ] = dose if it differs, or a comment. % is scaled to controls: 0 for no effect and ±100 for the full control effect; potency is read from the fitted curve at half-maximal effect.
item	molecule	VACV mCherry inh	Vaccinia Venus
1	COc1ccc(S(=O)(=O)N2CCCC(C(=O)NC3CCCCC3)C2)cc1 (centres undefined)	-25.7%	-11.8%
2	O=C(CN(Cc1ccc(F)cc1)C(=O)Cn1nnc2ccccc21)NCC1CCCO1 (centres undefined)	-7.9%	1.1%
3	COCCN(C(=O)c1cc(-c2ccncc2)nc2ccccc12)c1c(N)n(CC(C)C)c(=O)[nH]c1=O	-11.8%	-4.7%
4	O=C(NCCc1ccccc1)c1ccc2nc(N3CCOCC3)sc2c1	3.4%	-12.3%
5	CN(C)c1ccc(/C=N/NC(=O)CCC(=O)NCc2ccccc2)cc1	i	-9.8%
6	COc1ccc(N2CCN(C(CNC(=O)Oc3ccccc3)c3cccnc3)CC2)cc1 (centres undefined)	-12.9%	-13.0%
7	O=C1CCCC(=O)N1c1ccc(NCCOCCO)c([N+](=O)[O-])c1	?	-22.3%
8	CN(C)S(=O)(=O)n1cc(/C=C(\NC(=O)c2ccccc2)C(=O)NCCCN2CCOCC2)c2ccccc21	i[7.34 µM]	0.0%[7.34 µM]
9	CCc1ccccc1S(=O)(=O)Cc1ccc(C(=O)NCc2ccc3c(c2)OCO3)o1	-14.9%	1.5%
10	COc1ccc(C(=O)N(C)C(C)c2nccs2)cc1OC1CCN(C(C)=O)CC1 (centres undefined)	-26.8%	-2.5%
11	COc1ccc(CCNC(=O)C2CC(c3ccccc3[N+](=O)[O-])=NO2)cc1 (centres undefined)	-3.4%	-5.5%
12	O=C1NN=C2CCCCCCCCCCC12 (centres undefined)	-19.5%	-23.7%
13	COc1ncnc2c1ncn2CCCNCC(c1ccccc1)c1ccccc1	-12.8%	-13.1%
14	Oc1[nH]c(N=C2N=c3ccccc3=N2)c2ccccc12	-20.4%	-23.0%
15	Cc1ccc(S(=O)(=O)/N=C2\C(=O)c3ccccc3C([O-])=C2n2cc[n+](CCC(C)C)c2)cc1	?	?
16	Cc1cccc(OCc2nnc(SCC(=O)Nc3ccc(C)cc3C)o2)c1	-10.8%	0.8%
17	CN(CC(=O)Nc1cccc(F)c1)CC(=O)N1CCc2ccccc21	-11.3%	-20.4%
18	COC(=O)C1CCN(C(=O)COC(=O)c2oc3ccccc3c2C)CC1	-25.8%	-12.5%
19	COC(C[C@@H]1O[C@@H]1C(=O)[C@H](C)OCc1ccccc1)OC	-26.8%	-7.2%
20	Cc1cc(C)c(S(=O)(=O)Nc2cccc(/C=C/C(=O)O)c2)c(C)c1	-10.2%	-3.5%
21	Cc1cc(C)c2c(=O)[nH]c(SCC(=O)N3CCOCC3)nc2n1	-9.5%	-6.5%
22	Cc1ccc2nc(-c3ccc(C)c(NC(=O)COc4ccc(Br)cc4)c3)oc2c1	-4.3%	-13.5%
23	CC1(NC(=O)c2cccc(S(=O)(=O)N3CCCc4ccccc43)c2)CCS(=O)(=O)C1 (centres undefined)	i	-12.3%
24	Cc1cc2cc(CN(Cc3nnnn3C3CCCCC3)CC3CCCO3)c(=O)[nH]c2cc1C (centres undefined)	i	-12.2%
25	Oc1ccccc1CNCc1ccccc1	-22.6%	-11.0%
26	Cn1c(=O)[nH]c(=O)c2[nH]c(CO)nc21	-15.0%	0.9%
27	CC[C@@H]1CCCCc2ccccc2[C@H](C(=O)C[C@@H](O)CC(C)=O)OC1=O	i	-16.5%
28	Cc1ccccc1CSCC(=O)Nc1ccccc1F	-7.6%	-16.3%
29	O=C(NN1CCOCC1)c1ccc(S(=O)(=O)N2CCCCC2)cc1	i	-9.0%
30	O=S(=O)(Nc1nccs1)c1ccc(Br)cc1	-3.3%	-4.8%
31	O=C(Nc1ccc(F)cc1F)NC1CCCCCCC1	-9.3%	-13.9%
32	CCN(CC)P(=O)(/C(Cl)=C\Nc1c(C)n(C)n(-c2ccccc2)c1=O)N(CC)CC	.	-11.2%
33	CN(C)C(CNC(=O)c1ccc(Br)cc1)c1ccco1 (centres undefined)	i	-5.2%
34	C/C(CC(=O)c1ccccc1)=N\NC(=O)CC#N	-18.7%	1.3%
35	Cc1cc(C)nc(N/N=C/c2ccc(N3CCOCC3)cc2)n1	-12.1%	-14.1%
36	Cc1ccc(-n2c(-c3ccccc3)nsc2=NC#N)cc1	3.55µM*	4.47µM*
37	c1ccc(-c2oc3ncnc(NCCCn4ccnc4)c3c2-c2ccccc2)cc1	-29.6%	-20.3%
38	O=C(C1CCN(S(=O)(=O)N2CCCCC2)CC1)N1CCCCC1	-11.7%	-11.7%
39	Cc1nn(-c2ccccc2)c(Cl)c1C(=O)OC(C)C(=O)NC(=O)NC1CCCCC1 (centres undefined)	-13.6%	-8.2%
40	CCC(C)(C)C1CCC2(CC1)NC(=O)N(CC(=O)NCCc1c[nH]c3ccccc13)C2=O (centres undefined)	-15.5%	-18.0%
41	CC(C)=NNc1nc2sc3c(c2c(=O)[nH]1)CC(C)(C)OC3	-14.9%	-15.3%
42	COc1ccc(C(C(=O)NCc2ccccc2)N(C(=O)c2snc(C(N)=O)c2N)C2CCCC2)cc1O (centres undefined)	-25.8%	-8.1%
43	CCn1c(SCC(=O)c2ccc3c(c2)OCCO3)nnc1-c1ccco1	i	-3.8%
44	COc1ccc2oc(C(=O)OC/C(O)=C(\C#N)c3nc4ccccc4[nH]3)c(C)c2c1	i[7.34 µM]	-16.6%[7.34 µM]
45	CCCCCn1c(=O)c(C(=O)NCc2ccncc2)c(O)c2ccccc21	?	?
46	CC(NC(=O)CSc1nnc(-c2cc3cc(Cl)ccc3o2)n1C)c1ccccc1 (centres undefined)	?	-18.1%
47	Cc1nc(N)ncc1Sc1ccccc1	i	-2.8%
48	N/C(Cc1ccc([N+](=O)[O-])cc1)=N\OC(=O)C1CCCCC1	-1.1%	-5.3%
49	CC1=CC(C)(C)N(C(=O)CSc2nccn2C)c2cc(C)ccc21	-2.5%	-8.5%
50	CCn1c(-c2ccccc2Cl)nn(CC(=O)Nc2ccc(OC)cc2)c1=S	.	?
51	CC(C)N(CCC(=O)c1ccc2ccccc2c1)Cc1ccccc1	?	?
52	CCOc1ccc(CCNC(=O)CCC(=O)Nc2ccc3nc(N4CCN(C)CC4)cc(C)c3c2)cc1OCC	?	-23.3%
53	O=C(Nc1ccc(NC(=O)c2cccs2)cc1Cl)c1ccco1	i	-12.9%
54	O=C(CC1C[C@H](C(=O)N2CCOCC2)[C@@]2(CCC3CCCC3)c3[nH]c4ccccc4c3CCN2C1=O)NCCN1CCOCC1 (some centres undefined)	i	0.0%
55	Cc1ccccc1CC(=O)N1CCC(CCC(=O)NC2CC2)CC1	i	-6.7%
56	C=CCOC(=O)C1=C(C)NC(=O)NC1c1cn(-c2ccccc2)nc1-c1cccs1 (centres undefined)	-22.3%	-20.6%

# In a second layout: entries from further up
# Values run as follows: VACV mCherry inh	Vaccinia Venus
49: CC1=CC(C)(C)N(C(=O)CSc2nccn2C)c2cc(C)ccc21
 : -2.5%	-8.5%
50: CCn1c(-c2ccccc2Cl)nn(CC(=O)Nc2ccc(OC)cc2)c1=S
 : .	?
51: CC(C)N(CCC(=O)c1ccc2ccccc2c1)Cc1ccccc1
 : ?	?
52: CCOc1ccc(CCNC(=O)CCC(=O)Nc2ccc3nc(N4CCN(C)CC4)cc(C)c3c2)cc1OCC
 : ?	-23.3%
53: O=C(Nc1ccc(NC(=O)c2cccs2)cc1Cl)c1ccco1
 : i	-12.9%

# (cont.)
item	molecule	VACV mCherry inh	Vaccinia Venus
57	O=C(Nc1ccccc1Br)c1ccc(OC(=S)N2CCOCC2)cc1	7.6%	-3.1%
58	O=C(Nc1ccc(Oc2ccccc2)nc1)C1CCN(Cc2cccc(F)c2)CC1	-20.5%	-28.2%
59	CC(C)(C)OC(=O)N(CCc1ccccc1)Cc1ccccc1OCc1cccc(NC(=O)/C=C/c2ccccc2)c1	-11.3%	-7.3%
60	CN(c1ccc(F)cc1)S(=O)(=O)N1CCCC(C(=O)NCCc2ccccc2)C1 (centres undefined)	-8.4%	-9.2%
61	O=c1c(C/C=C/c2ccccc2)c(O)ccn1CCc1c[nH]c2ccccc12	-9.8%	-7.2%
62	COc1cc(OC)c(C(C)=O)c(O)c1C	i	-8.0%
63	CCc1nc2c(OCc3ccccc3)cccn2c1N(C)C(=O)c1ccc2c(c1)OCO2	12.4%	3.4%
64	OCCNCc1cc(Br)ccc1OCc1ccccc1	-27.6%	-11.1%
65	COC(=O)C(NC(=O)C(CC(C)C)NC(=O)C1CCC(C)CC1)C(C)C (centres undefined)	-10.7%	-8.6%
66	COc1cccc(-c2cn3c(n2)sc2cc(C(=O)NCCCc4ccccc4)ccc23)c1	-9.2%	-13.9%
67	O=C(c1ccc([N+](=O)[O-])cc1)N(Cc1ccccc1)Cc1ccccc1	-13.9%	-3.7%
68	O=c1c2cc(NC(=S)N3CCCC3)ccc2nc2n1CCCCC2	-14.2%	-12.3%
69	O=C(NCc1ccccc1)c1ccco1	.	-14.5%
70	O=c1cc(CNc2ccc(Br)cc2)nc2sccn12	-15.4%	-20.1%
71	COc1ccc(CNC(=O)[C@@H](NC(=O)C2CCN(C(=O)[C@@H](N)CCSC)CC2)C(C)C)cc1	-8.3%	4.6%
72	CC(C)N(C(=O)COC(=O)CNS(=O)(=O)c1ccccc1F)c1ccccc1	-2.9%	-12.7%
73	O=C(c1ccc(OC2CCN(C(=O)c3cccnc3)CC2)cc1)N1CCCCCC1	-22.5%	-5.2%
74	Cc1cccc(OC(=O)c2cn(C)nc2C(F)(F)F)c1C	.	-11.6%
75	C[C@H]1CN([C@@H](C)CO)C(=O)Cc2cc(NC(=O)CCC(F)(F)F)ccc2O[C@H]1CN(C)Cc1ccc(C(F)(F)F)cc1	-17.8%	?
76	S=c1sc2c(N3CCOCC3)ncnc2n1-c1ccccc1	-7.1%	0.7%
77	Cc1nc(-c2c(C(=O)NNC(=O)Nc3c(C)cccc3C)noc2C)cs1	-12.2%	-3.1%
78	c1ccc(NN=C(c2ccccc2)c2cccs2)cc1	-11.5%	0.1%
79	Cc1cccc(NC(=O)CSCC(=O)Nc2cc(C(F)(F)F)ccc2N2CCOCC2)c1	-22.3%	?
80	O=C(Nc1ccccc1)Nc1nnc(/C=C/c2ccccc2Cl)s1	-14.8%	-4.8%
81	CCN(/N=C/c1cccs1)c1cc(=O)n(C)c(=O)[nH]1	.	12.4%
82	COc1ccc(CC(=O)Nc2nnc(C)s2)cc1	-19.1%	-12.4%
83	Cc1cc(C)c(S(=O)(=O)CCC(C)C)c(=O)[nH]1	i	-4.2%
84	COC(=O)/C=C1/N/C(=N\c2nc(C)cc(C)n2)N(c2ccc(Cl)cc2)C1=O	-7.5%	-15.8%
85	Cn1cnc(S(=O)(=O)NC2CCN(Cc3ccccc3)CC2)c1	i	-6.6%
86	CC(=O)c1cccc(NC(=O)C2CCCC2)c1	.	19.9%
87	Cc1cccc(C2=NN(c3ccccc3)[C@@H](C(=O)N3CCOC3=O)[C@@H]2c2ccc(Cl)cc2)c1	-11.4%	?
88	CSc1ccc(CCNC(=O)C2=C(C)C(=O)OC23CCCCC3)cc1	-3.4%	-14.2%
89	COc1ccc(CCNC(=O)C2(C)CCC(=O)N2Cc2ccc(F)cc2Cl)cc1OC (centres undefined)	-16.5%	-18.6%
90	Cc1ccc2c(c1)N(CC(=O)NC1CCCC(C)C1C)C(=O)c1cccnc1O2 (centres undefined)	-7.7%	-4.9%
91	COc1ccc(C2=NOC(C(=O)N3CCCCCC3)C2)cc1OC (centres undefined)	-8.4%	-7.0%
92	O=C(CNC(=O)c1ccco1)Nc1ccncc1	i	-5.8%
93	CN(CCCNC(=O)c1cn(C)c2ccc(S(=O)(=O)N(C)C)cc2c1=O)c1ccccc1	-10.3%	-5.7%
94	CC1(c2cccc(Br)c2)NC(=O)N(CC(=O)Nc2ccc(N3CCCCC3)cc2)C1=O (centres undefined)	?	?
95	COC(=O)c1ccc(CSc2nc(C(F)(F)F)c3c(c2C#N)CCC3)o1	.	-10.3%
96	COC(=O)c1c(C)oc2ccc(N(C(=O)Oc3ccccc3)S(=O)(=O)c3ccccc3)cc12	i	-10.8%
97	COc1ccc(S(=O)(=O)Nc2cccc(S(=O)(=O)NC3=NCCC3)c2)cc1[N+](=O)[O-]	i	-12.5%
98	NS(=O)(=O)c1ccc(CNC(=O)c2cc(-c3cccs3)nc3ccccc23)cc1	-1.3%	-1.5%
99	Brc1ccccc1-n1nnc(-c2cnc3ccccc3c2)n1	i	-16.9%
100	Cc1ccc(NC(=O)C(=O)NCCN2CCN(C(=S)Nc3ccccc3)CC2)cc1	-21.8%	-19.8%
101	COc1ccc(CNCCC(c2ccc(C)cc2)c2ccco2)cc1 (centres undefined)	-20.0%	-19.9%
102	O=C(Nc1nncs1)c1cc(S(=O)(=O)N2CCOCC2)ccc1Cl	-13.6%	0.3%
103	CN=c1scc(C)n1/N=C/c1ccc(O)cc1O	.	-26.2%
104	Cc1ccc(-c2nnc3cccc(Cl)n23)cc1	-8.0%	2.5%
105	Cc1ccc(/C(=N/Nc2nc3ccccc3s2)C2=C(O)c3ccccc3C2=O)cc1	-19.9%	-3.9%
106	O=C(NCc1ccccc1)C(c1ccncc1)n1c(=O)c(-c2ccco2)nc2ccccc21 (centres undefined)	-15.0%	-10.5%
107	CN(C)CCNC(=O)C12CC3(C)CC(C)(CC(C)(C3)C1)C2	?	?
108	O=C(Nc1ccc2c(c1)OCO2)C1CCN(S(=O)(=O)c2ccc3c(c2)OCCO3)CC1	-18.1%	-13.4%

# Hits appear at their usual frequency; 0.87% or so of the library scored in one or more.
